D2 ag: agonists of human D2 dopamine receptor (beta-arrestin); AID 624465; DiscoveRx PathHunter D2 beta-arrestin, luminescence, 90 min; 100% = 57 uM dopamine signal; 360,000 compounds, 0.084% hits; P14416; activation, % (no concentration beside the values); in the data active = activation above about 40%; inconclusive = about 15% to 40%; inactive = below about 15%; further: compound concentration not given in the record; the text of the record calls up to 30% inactive
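Agonist mode: compounds alone added to overnight-plated D2 PathHunter cells for 90 min at 37 C, with 57 uM final dopamine (EC100) defining full response. Beta-arrestin recruitment detected by chemiluminescent reagent, read after 1 h at ambient temperature.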
gsp ag: gsp mutant agonism; Potency, µM (titrated, usually from 76.9 µM), for inactives: top-dose activation (cAMP increase), actives largely listed as activators; AID 624287; gsp mutant cells, cAMP HTRF, 30 min; control for the full effect not named in the record; 340,000 compounds, 0.13% hits; active = well fitted activation curve with a large enough effect; inconclusive = small, poorly fitted or top-dose-only effect, or another doubt; inactive = no such curve, though single readings can be large or run the other way; cell line not stated here;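 further: phosphodiesterase inhibitor Ro 20-1724 added with compounds to block cAMP breakdown; potency means the concentration at half of the fitted maximal effect; nearly all actives have a fitted effect of over 60% in size; about a fifth of the inactives were tested at one dose only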
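Cells in DMEM/10% FBS with G418 were pretreated with compounds in DMSO plus […] (300 uM stock) for 30 min at 37C. cAMP was measured by HTRF (cAMP-d2 plus anti-cAMP antibody-K) after 30 min at room temperature.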
D2 PAM: potentiates the human D2 dopamine receptor allosterically; P14416; DiscoveRx D2 beta-arrestin cells, luminescence, 90 min; 100% = 57 uM dopamine signal; potentiation, % (no concentration beside the values); 360,000 compounds, 0.23% hits; AID 624464; active = potentiation of 50% or more; inconclusive = 30% to 50%; inactive = 30% or less;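 further: compound concentration not given in the record; tested on top of an EC20 dose of dopamine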
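PathHunter beta-arrestin assay in DiscoveRx D2 cells. Compounds were added with an EC20 of dopamine (50 nM final) for 90 min at 37 deg C. Luminescence was read 1 h after detection reagent, with 57 uM dopamine as the EC100 control.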
gsp antag: antagonists of gsp mutant (McCune-Albright syndrome). gsp-mutant cells, cAMP HTRF, 30 min; control for the full effect not named in the record. Potency, µM (titrated, usually from 76.9 µM), for inactives: at the highest dose activity change, negative = inhibition, hits mostly inhibitors. 340,000 compounds, 0.4% hits; active = falling curve of any shape with a large fitted effect; inconclusive = falling curve, mostly with a smaller effect; inactive = flat or rising curve; cell line not stated here;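 further: intracellular cAMP measured with PDE inhibitor Ro 20-1724 present during compound exposure; potency means the concentration at half of the fitted maximal effect; on the % scale 0 is the no-effect control and ±100 the full control effect; nearly all actives have a fitted effect of over 65% in size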
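HTRF cAMP read-out (cAMP-d2 plus anti-cAMP antibody-K in lysis buffer, 30 min RT). Before lysis, cells are exposed to compounds with […] for 30 min at 37C in DPBS containing Ca/Mg, BSA and Tween 20.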
Six1-Eya2 inh: Six1/Eya2 interaction inhibition. Q15475+O00167. AlphaScreen GST-Six1/His-Eya2 binding, biochemical; active compounds read low; control for the full effect not named in the record. activity change, % (concentration not given with the values). 360,000 compounds, 0.56% hits; in the data active = activity change below about -65%; inconclusive = about -30% to -65%; inactive = above about -30%; further: on the % scale 0 is the no-effect control and ±100 the full control effect
Target sequence (O00167 whole entry, looked up): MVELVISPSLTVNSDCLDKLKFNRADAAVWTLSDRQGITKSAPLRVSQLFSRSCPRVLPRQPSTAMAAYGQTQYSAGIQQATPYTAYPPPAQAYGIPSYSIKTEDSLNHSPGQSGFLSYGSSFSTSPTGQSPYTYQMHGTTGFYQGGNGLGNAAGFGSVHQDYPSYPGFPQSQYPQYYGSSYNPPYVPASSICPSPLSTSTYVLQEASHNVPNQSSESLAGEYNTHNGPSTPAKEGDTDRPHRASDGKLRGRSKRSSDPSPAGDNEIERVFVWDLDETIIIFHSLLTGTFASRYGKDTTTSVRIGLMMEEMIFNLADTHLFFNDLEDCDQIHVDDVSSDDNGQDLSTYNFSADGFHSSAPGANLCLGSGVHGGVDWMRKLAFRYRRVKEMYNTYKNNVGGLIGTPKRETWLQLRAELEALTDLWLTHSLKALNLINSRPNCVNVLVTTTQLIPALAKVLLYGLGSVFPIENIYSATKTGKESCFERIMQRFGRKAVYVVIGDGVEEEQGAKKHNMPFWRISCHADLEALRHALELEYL
Target sequence (Q15475 whole entry, looked up): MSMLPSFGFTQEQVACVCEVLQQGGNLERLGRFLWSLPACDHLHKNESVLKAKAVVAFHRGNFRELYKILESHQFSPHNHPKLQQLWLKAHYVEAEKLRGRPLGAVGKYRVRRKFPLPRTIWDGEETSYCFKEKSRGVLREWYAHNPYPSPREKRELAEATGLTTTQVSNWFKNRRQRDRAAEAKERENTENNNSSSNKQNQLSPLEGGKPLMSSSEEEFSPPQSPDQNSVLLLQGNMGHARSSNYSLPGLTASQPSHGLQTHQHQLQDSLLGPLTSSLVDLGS
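Six1/Eya2 binding was read as AlphaScreen signal after compounds were pinned into GST-Six1 plus His-tagged Eya2 (5X stock 250/500 nM) in pH 8.0 Tris/NaCl/TCEP buffer, beads added, then incubated 1 h, 37 C, dark.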
CtBP-E1A blk: inhibitors of CtBP/E1A interaction; AlphaScreen GST-E1A/His-CtBP binding, 1536-well; active compounds read low; control for the full effect not named in the record; activity change, % (test concentration not listed); AID 651724; 340,000 compounds, 0.49% hits; in the data active means activity change below about -65%; inconclusive means about -30% to -65%; inactive means above about -30%; further: on the % scale 0 is the no-effect control and ±100 the full control effect
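GST-E1A and His-tagged CtBP (125 nM each as 5X stock) were preincubated with pin-transferred compound for 2 h at 37 °C in the dark, then glutathione donor and nickel acceptor beads were added for 1 h before AlphaScreen reading.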
* hit, by the source's call; ? = inconclusive; nt = no result given; [ ] = remark or other dose.

smiles	D2 ag	gsp ag	D2 PAM	gsp antag	Six1-Eya2 inh	CtBP-E1A blk
Cc1nn(Cc2ccccc2Cl)c(C)c1NC(=O)CCCn1nc([N+](=O)[O-])c(Cl)c1C	4.8	18%[15.4 µM]	-3	-6%	-4	16
COCCNC(=S)N/N=C(\C)c1ccccc1OC	-1.5	-17%	-14	4%	-7	-11
CC(Oc1ccc(F)cc1F)C(=O)/C=C/N(C)C (centres undefined)	-0.1	-3%	6	6%	3	-2
CC(C)Nc1ncnc2c1cnn2-c1ccccc1	-0.5	-74%[inhibitor]	-5	-1%	-6	-2
CCOC(=O)c1ccc2nc(C)c(CCC(C)=O)c(Cl)c2c1	-4.3	13%	-30	19%	21	1
COc1ccc([C@H]2C[C@H](O)[C@@H](n3cc(C4CC4)nn3)CN2CC2CCCCC2)cc1	-2.4	-29%	nt	nt	-3	0
CCOCCc1nn2c(=O)cc(CSCC(=O)Nc3ccccc3)nc2s1	-0.5	7%	-1	5%	7	nt
COc1ccc(NC(=S)N2CCC(NC(=O)c3ccccc3C)CC2)cc1	0.2	9%	-8	2%	-4	1
O=C(c1ccc(Cn2ccc([N+](=O)[O-])n2)cc1)N1CCN(Cc2ccccc2)CC1	1.2	12%[15.4 µM]	-12	-17%	0	4
COc1ccccc1C1NC(=O)NC(C)=C1C(=O)Nc1cccc(C)c1C (centres undefined)	0.1	-14%	-1	2%	-4	-2
Cc1cc2cc(CNC(=O)c3cccc([N+](=O)[O-])c3)ccc2[nH]1	-2.4	?	-5	3%	-15	-16
CN(CC(=O)Nc1cccc(F)c1)C(=O)c1ccc(OCc2ccccc2)cc1	-2.8	22%	2	-14%	-2	nt
CC(Oc1ccccc1F)C(=O)NNC(=O)CCS(=O)(=O)c1ccccc1Cl (centres undefined)	-2.2	-59%[inhibitor]	11	10%	0	4
COC(=O)C1CCN(C(=O)COC(=O)[C@@H]2CC(O)CN2S(=O)(=O)c2ccc3c(c2)OCCO3)CC1 (some centres undefined)	-5.1	-9%	18	-5%	2	-23
COc1ccc(O)c(CN2CCCC(C(=O)Nc3cccc(-n4cccn4)c3)C2)c1 (centres undefined)	-3.9	-8%	-24	-24%	-15	0
Cc1ccc(NC(=S)NC(NC(=O)c2ccco2)C(Cl)(Cl)Cl)cc1 (centres undefined)	-0.4	-6%	-16	5%	-7	-4
CCc1nn(CC(=O)NC(C)CCc2ccccc2)c(=O)c2cc3cc(F)ccc3n12 (centres undefined)	-5.1	1%	-5	7%	16	nt
Cc1cc(NC(=O)C(C)Oc2ccc(Cl)cc2Cl)no1 (centres undefined)	-0.1	-10%	-1	-8%	-1	4
CCCCNC(=O)c1nc(C2CCN(S(=O)(=O)c3c(F)cccc3F)CC2)oc1-c1ccccc1	-4.4	nt	-1	nt	0	1
CCN(CC(=O)Nc1ccc([N+](=O)[O-])cc1OC)c1ccccc1	-0.2	13%	-10	-19%	-22	6

Five entries out of the list, arranged by heavy-atom count, highest first:
smiles	D2 ag	gsp ag	D2 PAM	gsp antag	Six1-Eya2 inh	CtBP-E1A blk
COC(=O)C1CCN(C(=O)COC(=O)[C@@H]2CC(O)CN2S(=O)(=O)c2ccc3c(c2)OCCO3)CC1 (some centres undefined)	-5.1	-9%	18	-5%	2	-23
Cc1nn(Cc2ccccc2Cl)c(C)c1NC(=O)CCCn1nc([N+](=O)[O-])c(Cl)c1C	4.8	18%[15.4 µM]	-3	-6%	-4	16
COc1ccc(O)c(CN2CCCC(C(=O)Nc3cccc(-n4cccn4)c3)C2)c1 (centres undefined)	-3.9	-8%	-24	-24%	-15	0
Cc1ccc(NC(=S)NC(NC(=O)c2ccco2)C(Cl)(Cl)Cl)cc1 (centres undefined)	-0.4	-6%	-16	5%	-7	-4
CC(Oc1ccc(F)cc1F)C(=O)/C=C/N(C)C (centres undefined)	-0.1	-3%	6	6%	3	-2

(continued)
smiles	D2 ag	gsp ag	D2 PAM	gsp antag	Six1-Eya2 inh	CtBP-E1A blk
COCC(=O)N1CCC(Oc2ccc(C(=O)NCc3csc(C(C)C)n3)cc2)CC1	6.9	-36%[inhibitor]	2	7%	3	6
Cc1ccc(Cn2c(SCc3cccnc3)nc3c2c(=O)n(C)c(=O)n3C)cc1	-0.2	-1%	2	8%	1	1
O=C(c1ccc(F)cc1)C1CCN(C(=S)Nc2ccccc2Cl)CC1	0.3	1%	-34	-15%	2	-4
NS(=O)(=O)c1ccc(CCNC(=O)COC(=O)C2CCC2)cc1	-1.1	?	-4	3%	6	3
COc1ccc(N2C(=O)/C(=C/N(C)C)NC2=S)cc1	-2.1	-4%[15.4 µM]	3	1%	-1	7
Cc1ccc2nc(Nc3ccc(C)c(Cl)c3)c3nncn3c2c1	-0.9	-2%	-7	6%	5	nt
CCCCCC1CCC(c2nnc(SCC(C)=O)o2)CC1 (centres undefined)	2.9	4%[15.4 µM]	0	6%	6	6
COc1ccc(S(=O)(=O)Nc2ccccc2C(=O)NCc2cccnc2)cc1OC	-1.5	2%[15.4 µM]	-2	0%	-18	-4
COc1ccc(CCNC(=O)c2cc(-c3cc(C)c(C)cc3O)n[nH]2)cc1OC	3.2	4%	-3	-1%	-1	2
CC(C)(C)c1ccc(OCC(=O)NCc2ccco2)c(Br)c1	-4.0	0%	-18	-14%	-13	0
CCCn1nnc(NC(=O)COc2cc(C)ccc2C(C)C)n1	0.5	11%	-13	-2%	0	2
CC(C(=O)N1CCc2ccccc21)N1CCN(S(=O)(=O)c2cccs2)CC1 (centres undefined)	-2.5	-35%[inhibitor]	-8	3%	-2	-9
OC1CCN(c2c3c(nc4cc(-c5cccc(F)c5)nn24)CCCC3)CC1	0.5	9%	-1	2%	1	3
CN1CCN(CC(O)COCc2ccc3c(c2)OCO3)CC1 (centres undefined)	-1.3	-6%	-8	9%	3	-8
CCOC(=O)c1cnc(SCC(=O)N2CCc3ccccc32)nc1N	-1.2	-24%	6	11%	5	8
COc1cc2c(cc1OC)C(c1cc3cc4c(cc3[nH]c1=O)OCO4)N(C(=O)C1CC1)CC2 (centres undefined)	0.5	-88%[inhibitor]	5	12%	-1	-2
COc1cc2c(cc1OC)CN(C(=O)c1ccc(OC)c(S(=O)(=O)N3CCCC3)c1)CC2	-1.6	20%	-19	-4%	-30	-4
Cc1ccc(C(=O)N/C(=C/C=C/c2ccccc2)C(=O)NCc2ccco2)cc1	-5.2	?	-9	-7%	-4	-6
Cc1cc(Cl)ccc1Oc1nc(-c2ccccc2)ncc1S(C)(=O)=O	0.4	7%	-1	-9%	13	3
Brc1ccccc1-c1nnc(-c2cccnc2)o1	-1.3	4%	-3	11%	-1	-1
COC(=O)C(Cc1ccc(O)cc1)N1Cc2ccccc2C1=O (centres undefined)	2.8	29%	-5	12%	-1	0
O=C(NCCc1ccc(Cl)cc1)c1cc2ccccn2n1	2.2	24%[15.4 µM]	1	-2%	3	1
Cc1nc(N)ncc1C(=O)Nc1ccccc1	-2.6	-13%	-1	5%	2	-5
CC1=CC=CC2=NC(=O)CC(C)(C(=O)O)N12 (centres undefined)	-2.7	14%[15.4 µM]	-3	4%	4	6
Cc1c(NC(=O)c2nn(CC(C)C)c(=O)c3ccccc23)c(=O)n(-c2ccccc2)n1C	6.1	19%[15.4 µM]	2	-7%	1	-4
CC(C)Cn1c(SCC(=O)O)nnc1-c1cccc(S(=O)(=O)N2CCOCC2)c1	0.6	12%	-5	11%	5	-11
C/C(CC(=O)Nc1cc(C)ccn1)=N\NC(=O)c1ccccc1C	-4.1	-2%[15.4 µM]	-14	1%	5	0
Cc1ccc(C(=O)NCC(=O)OCC(=O)N(CC(C)C)c2c(N)n(Cc3ccccc3)c(=O)[nH]c2=O)cc1C	-2.1	-70%[inhibitor]	-3	7%	2	-1
O=C(COC(=O)CNC(=O)c1cccs1)Nc1ccccc1C(F)(F)F	-11	10%[15.4 µM]	-5	1%	8	-2
CCC(C)N1C(=S)SC(C)(C)C1N(O)C(=O)NC1CCCCC1 (centres undefined)	-1.8	-1%[15.4 µM]	7	-3%	1	-1
CS(=O)(=O)c1ccc(Cl)c(NC(=O)CCCc2nc3ccccc3c(=O)[nH]2)c1	-2.8	-9%	-29	13%	0	4
Cn1cc([N+](=O)[O-])c(C(=O)NCc2ccccc2)n1	-2.5	7%	-8	18%	0	-11
Cc1ccc(S(=O)(=O)Nc2c(C)nc3nc(C)[nH]n3c2=O)c(C)c1	1.3	-22%	-5	5%	4	-3
CCOc1ccc(CNC(=O)C2CCCN(S(=O)(=O)N3CC(C)CC(C)C3)C2)cc1OC (centres undefined)	1.6	-12%	-5	4%	0	2
O=C(Nc1ccc(Cl)c(Cl)c1)Nn1cnnc1	1.5	-24%	-3	7%	-3	5
COc1ccc(C2=C(CC(=O)O)C(=O)CC2)cc1	-0.9	-24%	-17	15%	8	7
Cc1cccc(N2CCN(C(=O)c3ccc(CS(=O)Cc4cccc(Cl)c4)o3)CC2)c1C (centres undefined)	2.0	-5%	-4	?	-10	nt
COc1ccc(NC(=O)CN(C)C(=O)CCSc2ccc(C)cc2)cc1	-3.0	-25%	-17	-2%	5	0
Cc1cccc(NNC(N)=S)c1	-1.0	8%[15.4 µM]	2	-34%	16	18
CCOc1ncccc1C(=O)N(C)CC(=O)Nc1ccc(F)cc1	-2.8	-23%	-1	8%	0	-3
O=C(NCCCN1CCN(c2cccc(Cl)c2)CC1)C1(S(=O)(=O)c2ccc(Cl)cc2)CC1	-0.2	-11%	-38	-13%	-10	-6
Cc1cccc(NC(=O)NNC(=O)c2cc3occc3[nH]2)c1C	-1.6	3%	-8	0%	-8	nt
Cc1cc(=O)[nH]c(-c2ccc(C(F)(F)F)cc2)n1	3.4	3%	8	0%	-5	nt
COc1cccc(CNC(=O)CCC2CCCN(C(=O)c3ccccc3N(C)C)C2)c1 (centres undefined)	-0.6	-2%	-34	-14%	-8	12
COc1ccc(C(=O)CSc2nnc(NC(=O)C3CC(=O)N(c4ccccc4C)C3)s2)cc1 (centres undefined)	-3.1	-37%[inhibitor]	12	?	2	0
O=C(CN1C(=O)NC2(CCCCC2)C1=O)NCC(=O)Nc1ccc(F)c(F)c1	-1.4	-26%	-8	6%	5	-12
Cc1ccc(NC(=O)C2C(=O)N(CCO)C3(C)CC2c2ccccc2O3)cc1 (centres undefined)	1.4	2%	-7	5%	-1	-12
Cc1ccc(S(=O)(=O)N2CCC(C(N)=O)CC2)cc1C(=O)NC1CCCCC1	-1.8	1%[15.4 µM]	0	5%	-3	-9
CCC(C)(C)NC(=O)CN(Cc1ccc2c(c1)OCO2)C(=O)CCC(=O)Nc1ccccn1	0.9	20%	-3	-1%	3	6

Compounds as they come; 1.4% or so of the library scored in one or more.
